Screening results deposited in PubChem by Fisher Drug Discovery Resource Center.
NPYLR7 agonist – activates Aedes aegypti NPYLR7 receptor; HEK293T NPYLR7/Galpha15, GCaMP6s calcium fluorescence; activation, % at 10 µM; 270,000 compounds, 0.15% hits; in the data active means activation above about 40%;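 further: 0% = vehicle and 100% = reference agonist at the receptor; some compounds past the cut are filed as inactive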
NPYLR7 agonist max-min – further read-out of NPYLR7 agonist, marked with its call; activation, %; measured here: Max-Min RFU normalised activation; some inactives read as strong as hits;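 span of the calcium signal over five minutes; 0% = vehicle and 100% = native peptide agonist; compound fluorescence can raise it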
* marks the source's active call; other numbers are inactive results; & = joins results of further samples.

For CCC(CC)n1nc(C)cc1NC(=O)c1cnoc1C1CC1 the results were NPYLR7 agonist 3 and NPYLR7 agonist max-min 4.
Screening O=C(NCc1ccc(Cl)cc1)c1cccnc1SC(F)F returned NPYLR7 agonist 4 and NPYLR7 agonist max-min 2.
For O=C(NCC(F)(F)F)C1CCCN1C(=O)/C=C/c1ccc2ccccc2n1 (centres undefined) the results were NPYLR7 agonist 7 and NPYLR7 agonist max-min 5.
CCOC(=O)c1cc(-c2ccc(N3CCN(C(=O)c4cnn(C)c4Cl)CC3)cc2)n(-c2ccccc2OC)n1 was read as NPYLR7 agonist 27 and NPYLR7 agonist max-min 11.
`Cc1cc(C)c(O)c(C(=O)NCCC(=O)NCc2ccncc2)c1` gave NPYLR7 agonist 4 and NPYLR7 agonist max-min 10.
For COCCCN(Cc1ccsc1)Cc1ccc(C(=O)OC)o1 the results were NPYLR7 agonist -5 and NPYLR7 agonist max-min -1.
C=CCN(Cc1nccn1Cc1c(C)cc(C)cc1C)C(=O)c1ccccc1F was read as NPYLR7 agonist -6 and NPYLR7 agonist max-min 3.
Screening CCCN(CC(=O)N(Cc1cccn1Cc1cccc(OC)c1)C(C)CC)C(=O)CCc1ccccc1 (centres undefined) returned NPYLR7 agonist -7 and NPYLR7 agonist max-min 2.
`COCCOC(=O)C1=C(C)NC2=C(C(=O)CC(c3ccccc3)C2)C1c1cc2c(cc1Cl)OCO2` (centres undefined) gave NPYLR7 agonist 0 and NPYLR7 agonist max-min -3.
For O=C1CCCN1CCC1CCN([C@@H]2c3ccccc3C3(CCNCC3)[C@H]2O)CC1 the results were NPYLR7 agonist -12 and NPYLR7 agonist max-min -12.
For COCCNC(=O)c1c(C)noc1-c1ccccc1OC the results were NPYLR7 agonist 22 and NPYLR7 agonist max-min 11.
Screening COCCN1CCCC2(CCN(Cc3cccc(C(F)(F)F)c3)C2)C1=O (centres undefined) returned NPYLR7 agonist 16 and NPYLR7 agonist max-min 5.
For Cc1cccc2nc(CSc3nc4ccccc4[nH]3)cn12 the results were NPYLR7 agonist 0&0 and NPYLR7 agonist max-min -3&-3.
Screening CC(=O)Nc1ccc(C)c(OC(C)=O)c1 returned NPYLR7 agonist -3 and NPYLR7 agonist max-min 17.
Screening CCc1cnc(C)nc1NC(C)c1nncn1C (centres undefined) returned NPYLR7 agonist -4 and NPYLR7 agonist max-min -8.
For COCC(=O)Nc1ccc(N(C)C)c(CN(C(=O)c2cccc(C)c2)C(C)C(C)C)c1 (centres undefined) the results were NPYLR7 agonist 3 and NPYLR7 agonist max-min 11.
Cn1nnnc1NCc1ccccc1OCc1ccccc1 was read as NPYLR7 agonist 1 and NPYLR7 agonist max-min -2.
Screening Cc1cccc2c1N(C(=O)CNC(=O)C(C)(C)C)CCC2 returned NPYLR7 agonist 1 and NPYLR7 agonist max-min 3.
`CCN1CCC(C(=O)NC(c2ccc(Cl)cc2)c2ccsc2)CC1` (centres undefined) gave NPYLR7 agonist 6 and NPYLR7 agonist max-min 2.
`Cc1cnc(C(C)NC(=O)Nc2ccccc2OCC(F)F)s1` (centres undefined) gave NPYLR7 agonist 1 and NPYLR7 agonist max-min 2.
Screening Cc1cc(=O)[nH]c(-n2nc(C)cc2NC(=O)C2c3ccccc3Oc3ccccc32)n1 returned NPYLR7 agonist 9 and NPYLR7 agonist max-min 1.
`COc1cn(CC(=O)N2CCOCC2)c(CO)cc1=O` gave NPYLR7 agonist 2 and NPYLR7 agonist max-min 1.
Screening Cc1cc(=O)[nH]c(-n2nc(C)cc2NC(=O)c2snnc2C)n1 returned NPYLR7 agonist 8 and NPYLR7 agonist max-min 2.
Screening CCC(C)N(CC(=O)N1CCc2sccc2C1c1ccc(Cl)cc1Cl)C(=O)c1ccc([N+](=O)[O-])cc1 (centres undefined) returned NPYLR7 agonist 15 and NPYLR7 agonist max-min 22.
`Cc1c(CN2CCCC(N3CCCC3=O)C2)[nH]c2ccc(F)cc12` (centres undefined) gave NPYLR7 agonist 3 and NPYLR7 agonist max-min 1.
For O=S(=O)(NCCNc1nc(-c2ccco2)nc2ccccc12)c1ccc(Cl)cc1 the results were NPYLR7 agonist 1 and NPYLR7 agonist max-min 10.
For CCOC(=O)C(C)NS(=O)(=O)c1cc(OC)c(OC)cc1F (centres undefined) the results were NPYLR7 agonist 0 and NPYLR7 agonist max-min 1.
CC(C(=O)N1CCN(C/C=C/c2ccccc2)CC1)N1C(=O)c2ccccc2C1=O (centres undefined) was read as NPYLR7 agonist -4 and NPYLR7 agonist max-min -9.
COc1ccc(OCC(=O)N=Nc2c(O)[nH]c3ccc(F)cc23)c(Br)c1 was read as NPYLR7 agonist -1 and NPYLR7 agonist max-min -7.
`CC(C)N1CCC(C)(C(=O)Nc2cccc3ccccc23)C1` (centres undefined) gave NPYLR7 agonist 3 and NPYLR7 agonist max-min 4.
`Cc1ccc(-c2nccc(CCC(F)(F)F)n2)c(F)c1` gave NPYLR7 agonist 3 and NPYLR7 agonist max-min 3.
CCOC(=O)c1ccc(N2C(=O)CC(NC3CCN(Cc4ccccc4)CC3)C2=O)cc1 (centres undefined) was read as NPYLR7 agonist 4 and NPYLR7 agonist max-min 0.
For CN(C)c1nccc(N(C)CC(c2cccs2)N2CCOCC2)n1 (centres undefined) the results were NPYLR7 agonist -1 and NPYLR7 agonist max-min -6.
CCn1cc(C(CC(=O)NCc2ccc3c(c2)OCO3)c2ccc(F)cc2)c2ccccc21 (centres undefined) was read as NPYLR7 agonist 4 and NPYLR7 agonist max-min 15.
`Cc1cc(C)c2cc(C(=O)N3CCC(n4c(-c5ccccc5)nc5ccc(F)cc54)CC3)[nH]c2c1` gave NPYLR7 agonist 28 and NPYLR7 agonist max-min 35.
`CC1CN(Cc2cc(Cl)c3ccccc3c2O)CCO1` (centres undefined) gave NPYLR7 agonist 5 and NPYLR7 agonist max-min 6.
Screening CCOC(=O)c1cnc2nc(-c3cccnc3)[nH]n2c1=O returned NPYLR7 agonist 2 and NPYLR7 agonist max-min -1.
For CCOC(=O)C1CCCN(C(=O)c2coc(CN(Cc3cc(OC)ccc3OC)C(C)c3ccccc3)n2)C1 (centres undefined) the results were NPYLR7 agonist 19 and NPYLR7 agonist max-min 23.
For CCOCC(=O)Nc1cc(Cl)c(NC(=O)COCC)c(Cl)c1 the results were NPYLR7 agonist 8 and NPYLR7 agonist max-min 6.
CCCCC(CC)C(=O)NC(C)c1nnc(SCc2cccc(OC)c2)n1-c1ccc(C)cc1 (centres undefined) was read as NPYLR7 agonist 15 and NPYLR7 agonist max-min 16.
Screening CCCCS(=O)(=O)N1CCC2(CC1)CC2c1nc(-c2cccc(Cl)c2)no1 (centres undefined) returned NPYLR7 agonist 5 and NPYLR7 agonist max-min 3.
For COc1ccc(CNC(=O)COC(=O)C23CC4CC(CC(C4)C2)C3)cc1OC the results were NPYLR7 agonist 1 and NPYLR7 agonist max-min 0.
Screening COC1C(O)C(O)C(O)[C@@H](O)C1O (some centres undefined) returned NPYLR7 agonist -3 and NPYLR7 agonist max-min -8.
Screening CCOC(=O)C1(CC2CC2)CCN(C(=O)c2cc(OC)nc3ccccc23)CC1 returned NPYLR7 agonist 8 and NPYLR7 agonist max-min 10.
For O=C(c1cc2n(n1)CCN(Cc1ccc(F)cc1)C2=O)N1CCN(c2ccccc2Cl)CC1 the results were NPYLR7 agonist -10 and NPYLR7 agonist max-min 2.

Reprinted from the part before: 6 entries, then new ones.
CCCCC(CC)C(=O)NC(C)c1nnc(SCc2cccc(OC)c2)n1-c1ccc(C)cc1 (centres undefined) was read as NPYLR7 agonist 15 and NPYLR7 agonist max-min 16.
Screening CCCCS(=O)(=O)N1CCC2(CC1)CC2c1nc(-c2cccc(Cl)c2)no1 (centres undefined) returned NPYLR7 agonist 5 and NPYLR7 agonist max-min 3.
For COc1ccc(CNC(=O)COC(=O)C23CC4CC(CC(C4)C2)C3)cc1OC the results were NPYLR7 agonist 1 and NPYLR7 agonist max-min 0.
Screening COC1C(O)C(O)C(O)[C@@H](O)C1O (some centres undefined) returned NPYLR7 agonist -3 and NPYLR7 agonist max-min -8.
Screening CCOC(=O)C1(CC2CC2)CCN(C(=O)c2cc(OC)nc3ccccc23)CC1 returned NPYLR7 agonist 8 and NPYLR7 agonist max-min 10.
For O=C(c1cc2n(n1)CCN(Cc1ccc(F)cc1)C2=O)N1CCN(c2ccccc2Cl)CC1 the results were NPYLR7 agonist -10 and NPYLR7 agonist max-min 2.
Screening C/C=C\C(=O)NCc1ccc2[nH]c(C)cc2c1 returned NPYLR7 agonist 1 and NPYLR7 agonist max-min -2.
For FC(F)(F)c1nc(Sc2nnc(C3CC3)o2)c2ccccc2n1 the results were NPYLR7 agonist 8 and NPYLR7 agonist max-min 8.
`CCc1ccc(CC(=O)N=c2sc3cc4c(cc3n2CC)OCO4)cc1` gave NPYLR7 agonist -11 and NPYLR7 agonist max-min -16.
Screening Cc1sc2ncnc(N(C)Cc3nc(C4CC4)no3)c2c1C returned NPYLR7 agonist 14 and NPYLR7 agonist max-min 1.
O=C(c1cccs1)N(Cc1cccc(C(F)(F)F)c1)CC1CC(c2ccc(F)cc2F)=NO1 (centres undefined) was read as NPYLR7 agonist 1 and NPYLR7 agonist max-min 2.
`O=C(CCC1CCCC1)Nc1c2c(nn1-c1ccc([N+](=O)[O-])cc1)CSC2` gave NPYLR7 agonist -2 and NPYLR7 agonist max-min -5.
O=C1Nc2ccccc2/C1=C\c1csc(-c2ccc(Cl)cc2)n1 was read as NPYLR7 agonist -4 and NPYLR7 agonist max-min -2.
`CC(=O)c1c(-c2ccccc2)c2cc(Br)ccc2n(C)c1=O` gave NPYLR7 agonist -6 and NPYLR7 agonist max-min -5.
CCCCCCN1C(=O)C(O)=C(C(C)=O)C1c1ccc([N+](=O)[O-])cc1 (centres undefined) was read as NPYLR7 agonist -2 and NPYLR7 agonist max-min -3.
For CCOC(=O)C1CCN(CC(=O)N2N=C(c3ccc(C)c(C)c3)CC2c2cccn2C)CC1 (centres undefined) the results were NPYLR7 agonist 0 and NPYLR7 agonist max-min 9.
CCOCCCN(CC(=O)N(Cc1ccccc1)Cc1cccs1)C(=O)Nc1ccc(C)c(Cl)c1 was read as NPYLR7 agonist 0 and NPYLR7 agonist max-min -10.
Cc1ccc(CN2CCC(CN(C)Cc3cnn(-c4ccccc4F)c3)CC2)o1 was read as NPYLR7 agonist 7 and NPYLR7 agonist max-min 2.
Screening CN1CCN(CC(=O)Nc2ccccc2Cc2ccccc2)C(C)(C)C1=O returned NPYLR7 agonist -1 and NPYLR7 agonist max-min -5.
`CCCCCc1ccc(C(=O)N(CC(=O)Nc2c(-c3ccccc3)c(C)nn2-c2ccccc2C)CC(C)C)cc1` gave NPYLR7 agonist 14 and NPYLR7 agonist max-min 14.
Cc1cc(C)n(CCNC(=O)[C@H](N)CC(C)C)c(=O)n1 was read as NPYLR7 agonist -4 and NPYLR7 agonist max-min -3.
For Cc1nc(C#N)c(N/N=C\c2cccc(Cl)c2)o1 the results were NPYLR7 agonist -6 and NPYLR7 agonist max-min -9.
Cc1ccc(C2C(=C(O)c3ccc(OC(C)C)cc3)C(=O)C(=O)N2CCN(C)C)o1 (centres undefined) was read as NPYLR7 agonist 2 and NPYLR7 agonist max-min -3.
Screening O=C(c1cc(Cl)c(Cl)[nH]1)N1CCC(OC2CCOC2)CC1 (centres undefined) returned NPYLR7 agonist -16 and NPYLR7 agonist max-min -20.
Cc1ccc2[nH]c(O)c(N=Nc3ccc(C(F)(F)F)cn3)c2c1 was read as NPYLR7 agonist -16 and NPYLR7 agonist max-min -15.
Screening COc1ccc(/C=C/c2cc(C(F)(F)F)on2)cc1 returned NPYLR7 agonist 10 and NPYLR7 agonist max-min 3.
O=C(NCc1ccc(F)cc1)C(=O)Nc1cc2c3c(c1)CCN3C(=O)CC2 was read as NPYLR7 agonist 2 and NPYLR7 agonist max-min 2.
`COC(=O)c1ccccc1NC(=O)CSc1nc2ccc(OC)cc2[nH]1` gave NPYLR7 agonist -4 and NPYLR7 agonist max-min -11.
COc1ccccc1N1CCN(c2ccc(NC(=O)/C=C/c3ccccc3)cc2C(=O)NCCCN(C)C)CC1 was read as NPYLR7 agonist -4 and NPYLR7 agonist max-min 5.
`Cc1cc(Cl)c2oc(C(=O)NCc3ccc(N4CCOCC4)cc3)c(C)c2c1` gave NPYLR7 agonist 18 and NPYLR7 agonist max-min 6.
`c1ccc(C(CCn2ccnc2)NC2CCCCCC2)cc1` (centres undefined) gave NPYLR7 agonist 17 and NPYLR7 agonist max-min 3.
`O=C(OC1(CC2=CCCCC2)CC1)c1cc([N+](=O)[O-])cc([N+](=O)[O-])c1` gave NPYLR7 agonist -4 and NPYLR7 agonist max-min -4.
Screening COc1cc(CC(=O)N2CCC3(CC2)OCc2cc(-c4ccccc4)ccc2O3)cc(OC)c1OC returned NPYLR7 agonist -28 and NPYLR7 agonist max-min -29.
Screening Cc1ccc(S(=O)(=O)N(CCN2CCOCC2)Cc2c(-c3ccccc3)noc2N(C)C(C)C)cc1 returned NPYLR7 agonist 12 and NPYLR7 agonist max-min 13.
CCOC(=O)c1cc(-c2ccc(N3CCN(C(=O)c4ccccc4OC)CC3)cc2)n(-c2ccccc2Cl)n1 was read as NPYLR7 agonist 12 and NPYLR7 agonist max-min 6.
`COc1cccc(C(=O)NC(=NCCN2CCOCC2)OC(C)C)c1` gave NPYLR7 agonist 9 and NPYLR7 agonist max-min 19.
Screening Clc1ccc2nc3c(c(Cl)c2c1)CCCC3 returned NPYLR7 agonist 1 and NPYLR7 agonist max-min 0.
For CC1Oc2ccccc2N(CC(=O)Nc2nnc(C(C)C)s2)C1=O (centres undefined) the results were NPYLR7 agonist 6 and NPYLR7 agonist max-min 3.
`COc1cccc(-c2cn[nH]c2C2CCN(C(=O)c3ccc(O)cn3)CC2)c1` gave NPYLR7 agonist 12 and NPYLR7 agonist max-min 11.
Screening COCC1(C(=O)N2CCC(c3ccccc3C(=O)O)C2)CCC1 (centres undefined) returned NPYLR7 agonist 6 and NPYLR7 agonist max-min 1.
C=CCc1cc(C)cc(C)c1OCCN1CCN(C)CC1 was read as NPYLR7 agonist -9 and NPYLR7 agonist max-min -18.

A portion of the library. The share of hits here may be higher or lower than overall.
